VDR inhibitor: Inhibitors of the vitamin D receptor (VDR): qHTS; VDR-SRC2-3 peptide fluorescence polarization, 2 h; Vitamin D3 receptor (Homo sapiens), P11473; Potency, µM, without a hit: max response, negative = inhibition, usual class: inhibitors; actives 0.93% (n = 400,000); active = well fitted inhibition curve with a large enough effect; inconclusive = small, poorly fitted or top-dose-only effect, or another doubt; inactive = no such curve, though single readings can be large or run the other way; also: series mostly up to about 120 µM
Target sequence (P11473 whole entry, looked up): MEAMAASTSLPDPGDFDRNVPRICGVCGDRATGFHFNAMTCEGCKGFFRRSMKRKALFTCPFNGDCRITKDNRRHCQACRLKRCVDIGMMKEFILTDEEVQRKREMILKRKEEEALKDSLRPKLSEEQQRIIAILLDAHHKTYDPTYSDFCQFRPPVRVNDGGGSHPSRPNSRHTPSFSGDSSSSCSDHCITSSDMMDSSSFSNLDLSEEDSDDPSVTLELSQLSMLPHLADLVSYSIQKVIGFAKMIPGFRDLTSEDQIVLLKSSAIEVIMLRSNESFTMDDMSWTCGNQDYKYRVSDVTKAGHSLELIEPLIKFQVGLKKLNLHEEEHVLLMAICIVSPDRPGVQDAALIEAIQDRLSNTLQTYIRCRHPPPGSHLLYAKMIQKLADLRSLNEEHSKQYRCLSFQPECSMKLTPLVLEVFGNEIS
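Inhibition of the VDR/SRC2-3 peptide interaction is quantified by fluorescence polarization. Compounds (23 nl, pintool) incubate with the reagents for 2 hours at ambient room temperature.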
* hit, by the source's call; ? = inconclusive; & = joins results of further samples; [ ] = dose if it differs, or a comment. % is scaled to controls: 0 for no effect and ±100 for the full control effect; potency is read from the fitted curve at half-maximal effect. Only part of the results is shown; rates above refer to the full screens.

structure | VDR inhibitor
O=C(O)c1cccc(Cn2c(Cl)c(/C=N/NC(=O)c3cc4ccccc4cc3O)sc2=O)c1 | ?
COC(=O)c1cnc(N2CCCN(S(=O)(=O)c3ccc(C(F)(F)F)cc3)CC2)nc1C(F)(F)F | 7.6%
CCN(CCNC(=O)C1CCN(Cc2nc(-c3ccc(Cl)cc3)oc2C)CC1)c1ccccc1 | -3.7%
CCCCS(=O)(=O)/C=C\C1C2C=CC(C2)C1S(=O)(=O)CCCC (centres undefined) | -4.6%
Cc1nc2ccccc2c(=O)n1/N=C/c1c(O)ccc2oc3c(c12)CCCC3 | -2.3%
Cc1nc(-c2ccc(S(=O)(=O)Nc3ccc(Br)cc3F)cc2)co1 | -5.2%
CC[C@H](C)[C@H](NC(=O)OCc1ccccc1)C(=O)Nc1ccc(NC(C)=O)cc1 | -21.4%
O=S(=O)(Nc1cccc(-n2cnnn2)c1)c1ccccc1 | 21.7%
CCOC(=O)C1=NNC(C(=O)OCC)C1c1ccccc1 (centres undefined) | -7.8%
CC(=O)Nc1ccc(S(=O)(=O)NC(C(=O)O)C2=CCC=CC2)cc1 (centres undefined) | 2.6%

Further results follow.
structure | VDR inhibitor
CCCn1c(N)c(C(=O)CSc2nncs2)c(=O)[nH]c1=O | -5.1%
OC1(c2ccc(Cl)c(Cl)c2)C[n+]2ccccc2N1Cc1ccccc1 (centres undefined) | 29.7%
COc1ccc(O)c(C(=O)CC(=O)c2ccccc2C)c1 | -2.0%
CCc1ccc(NS(=O)(=O)c2ccc3[nH]cc(C(=O)NCCCOC(C)C)c(=O)c3c2)cc1 | -9.5%
O=S(=O)(O)c1ccc2c(N=Nc3ccc(S(=O)(=O)O)c4ccccc34)c(O)c(S(=O)(=O)O)cc2c1 | -3.3%
CCOC(=O)COc1ccc(S(=O)(=O)N2CCN(c3ccc(F)cc3)CC2)cc1 | 21.3%
O=C(Nc1ccccc1F)c1cc(S(=O)(=O)N2CCOCC2)cs1 | 6.3%
COC(=O)CN(c1ccc(OCc2ccccc2)cc1)S(C)(=O)=O | 0.0%
O=C(C1CC(c2ccc(F)cc2)=NO1)N1CCCCC1 (centres undefined) | -3.1%
Cc1ccc(S(=O)(=O)N(C)CCCC(=O)n2nc(C)cc2C)cc1 | 0.1%

Other structures
structure | VDR inhibitor
Cc1cc(C)c2[nH]c(O)c(N=NC(=S)NCC3CCCO3)c2c1 (centres undefined) | 1.6%
CCCN=C1N(C)C[C@@H]2[C@@H]3C(=O)N(C)C(=O)[C@@H]3[C@](C)(C(=O)OC)N12 | -7.6%
CCOC(=O)CNc1nc(Cl)nc(Nc2ccccc2)n1 | -6.1%
Cc1cc(NC(=O)c2ccc(C#N)cc2)on1 | -16.6%
O=C(CSc1nc(-c2ccccc2F)nc2cc(=O)[nH]n12)Nc1cccc(C(F)(F)F)c1 | 10.4%
COCCNC(=S)Nc1ccc2nc(N3CCN(C)CC3)cc(C)c2c1 | 0.2%
CCOCCn1c(=NC(=O)c2cc3ccccc3oc2=O)sc2cc(S(N)(=O)=O)ccc21 | 1.0%
Cn1nc([N+](=O)[O-])nc1N1CCOCC1 | 9.8%
COc1cccc(NC(=O)c2ccc[n+](C)c2)c1 | -7.0%
COC(=O)c1cc(NC(=O)CN(c2ccccc2OC)S(=O)(=O)c2ccccc2)ccc1Cl | -5.5%

Going on with the list.
structure | VDR inhibitor
CCn1c(CNC(=O)c2ccc3c(c2)OCO3)nnc1SCC(=O)Nc1cc(C)ccc1OC | 7.2%
C=CCNC(=S)NNC(=O)c1ccc(OCCCC)cc1 | 16.9%
Cc1ccc(-n2ncc3c(SCc4cccnc4)ncnc32)c(C)c1 | 13.2%
S=C(Nc1ccc(Cl)cc1)c1sc(N2CCCCC2)nc1N1CCOCC1 | -1.2%
O=C(O)Cn1cnc2sc3c(c2c1=O)CCCC3 | -13.6%
CC1(c2ccc3ccccc3c2)NC(=O)N(CC(=O)NCc2cccs2)C1=O (centres undefined) | -4.8%
O=C(NCC1CCCO1)C(=O)c1c[nH]c2ccccc12 (centres undefined) | 32.6%[activator]
COc1ccc(N2CCN(C(=O)CSc3nnnn3C3CC3)CC2)cc1 | 16.9%
CSC(=S)N/N=C/c1ccc(N(C)C)cc1 | 5.9%
CCOC(=O)c1ccccc1NC(=O)COC(=O)c1c(CC)noc1C | -10.5%

New compounds follow
structure | VDR inhibitor
CC1CCN(CC(C)OC(=O)c2ccco2)CC1 (centres undefined) | -0.1%
Cc1ccc2sc(N3CCN(CCNC(=O)c4ccco4)CC3)nc2c1C | -10.6%
CCOc1ccccc1N1CCN(C(=O)c2ccc3[nH]c4c(c3c2)CCCC4)CC1 | ?
Cc1cccc(NC(=O)Cn2c(=O)n(CCc3ccccc3)c(=O)c3sc4ccccc4c32)c1 | 5.9%
COc1ccc(C(=O)N2CCC3(CCN(Cc4ccccc4OC)CC3)CC2)cc1 | 2.2%
O=C1N=C(N2CCCC2)S/C1=C\c1ccccc1 | ?
Cc1ccc(C(C(=O)NC(C)(C)C)N(C(=O)c2csnn2)c2cccc(F)c2)o1 (centres undefined) | -4.6%
Cc1ccc(C(=O)NCCC(=O)NCc2cc(=O)n(C)c(=O)n2C)cc1 | -4.2%
COc1ccc(NC(=O)c2ccc3c(c2)CCN3S(=O)(=O)c2ccc(C)cc2)cc1Cl | 5.1%
OCC1(Cc2ccc(Cl)cc2)CCN(Cc2ccc(Oc3ncccn3)cc2)CC1 | -3.1%

(next part)
structure | VDR inhibitor
Cc1ccc(C)c(S(=O)(=O)Nc2cc3c4c(c2)CCN4C(=O)CC3)c1 | -11.8%
COc1ccc([C@@H]2C[C@H](c3ccccc3)Oc3cc(OC)c(OC)c(OC)c32)cc1 | 1.3%
O=C(Cc1ccc(Cl)cc1Cl)NC1CCCCCC1 | -13.8%
COC(=O)CN(c1ccc(C)cc1)S(=O)(=O)c1ccc2c(c1)n(C)c(=O)c(=O)n2C | 4.0%
N#C/C(=C(/O)CO/N=C/c1ccccc1Cl)c1nc2ccccc2[nH]1 | -3.3%
COc1ccc(S(=O)(=O)NNC(=O)C2CC(c3cccnc3)=NO2)cc1 (centres undefined) | -1.6%
C=CC[C@@H](CC(=O)N[C@H](CO)Cc1ccccc1)C(=O)N[C@@H](COC(=O)[C@@H](CC=C)Cc1ccc(F)cc1)Cc1c[nH]c2ccccc12 | 5.1%
CCN(C(=O)CN1c2ccccc2CC1C)c1c(N)n(Cc2ccccc2)c(=O)[nH]c1=O (centres undefined) | 15.4%
O=C(NC(=O)N1CCN(c2cccc(Cl)c2)CC1)c1ccccc1 | 12.0%
O=C(Nc1cccc(F)c1)NC1CCN(Cc2ccccc2)CC1 | -3.5%

The list continues.
structure | VDR inhibitor
COc1ccc(/C=C(\C#N)C(=O)Nc2cc(S(=O)(=O)N3CCOCC3)ccc2N2CCCC2)cc1 | 35.5µM*
O=C(Nc1ccccc1Cl)c1ccc(C(=O)Nc2ccccc2Cl)cc1 | 4.5%
COc1ccc(-c2nc3ccccc3n2Cc2ccccc2)cc1 | 3.4%&-4.1%
O=C1N=C2N(CCN3CCCCC3)c3ccccc3N2/C1=C\c1ccc([N+](=O)[O-])s1 | -24.4%
CC1CCN(c2cc(N3CCOCC3)c(F)cc2[N+](=O)[O-])CC1 | -3.6%
N#C/C(=C\c1ccc(Cl)c([N+](=O)[O-])c1)c1ccccn1 | -14.1%
CC1CCCC(C)N1C(=O)COC(=O)C(Cc1ccccc1)NC(=O)c1cccs1 (centres undefined) | 8.5%
CCN=C1SCC(=O)N1c1ccc(OC)cc1 | 5.9%
Oc1cccc(/C=N/N(Cc2ccccc2)c2ccccc2)c1 | 4.9%
COc1ccc(CNC(=O)c2nn(-c3ccccc3)cc2OC)cc1 | 5.0%

Reprinted at random: two compounds from above.
structure | VDR inhibitor
O=C1N=C(N2CCCC2)S/C1=C\c1ccccc1 | ?
COc1ccc(CNC(=O)c2nn(-c3ccccc3)cc2OC)cc1 | 5.0%

Next section
structure | VDR inhibitor
CC(C)CCNC(=O)NC(=O)CSc1nnc2ccccn12 | 6.5%
CC(OC(=O)CC(NC(=O)c1ccccc1Cl)c1ccccc1)C(=O)Nc1cccc(Cl)c1Cl (centres undefined) | -14.7%
Cc1cccc(C(=O)N(Cc2ccc(C)o2)C2CCS(=O)(=O)C2)c1 (centres undefined) | -4.0%
COCCn1cnnc1SCC(=O)Nc1cc(C)on1 | -24.3%
CNC(=O)[C@H](C)[C@@H]1C[C@@]1(C)[C@@H](NC(=O)OCc1ccccc1)c1ccccc1 | -13.0%
COCCn1c(=S)[nH]c2cc(C(=O)N3CC(C)CC(C)C3)ccc2c1=O (centres undefined) | -15.1%
CCOc1ccc(CCNC(=O)c2c(C)oc3ncnc(N4CCOCC4)c23)cc1 | 1.9%
N#C/C(=C\c1ccc(Cl)cc1Cl)c1n[nH]c(Cn2cncn2)n1 | 6.0%
O=C(NCCc1ccc(Cl)cc1)C(=O)c1c[nH]c2ccccc12 | -4.2%
CCN(CC)S(=O)(=O)c1cccc(NC(=O)CNc2cccc(S(=O)(=O)N3CCOCC3)c2)c1 | -10.6%

Next results follow:
| smiles | VDR inhibitor |
| --- | --- |
| COc1ccc(OCCn2c(C)nc3cc(C)c(C)cc32)cc1 | 2.9% |
| CCCc1oc(C(=O)O)cc1CN1CCOCC1 | 3.6% |
| Cc1ccccc1/C=N/Nc1nc2ccccc2c(=O)n1O | -10.8% |
| CCCn1c(=O)c2[nH]cnc2n(-c2ccc(Cl)cc2)c1=O | -0.7% |
| O=C(COC(=O)/C=C/c1ccc(S(=O)(=O)N2CCOCC2)cc1)NC1CCCCCCC1 | -9.7% |
| CCOC(=O)C1(CCOC)CCN(CC(C)Cc2ccc3c(c2)OCO3)CC1 (centres undefined) | -16.4% |
| Cc1ccc(-c2nc(Cn3c(SCc4ccc(F)cc4)nc4cccnc43)c(C)o2)cc1 | 2.2% |
| O=C(OCc1nc(-c2ccccc2Cl)no1)c1ccco1 | -22.2% |
| O=C(COc1ccccc1)NCC(=O)Nc1cccc(S(=O)(=O)NC2=NCCC2)c1 | -0.1% |
| CCC1=Nc2cc(C(=O)NCCN(CC)CC)ccc2Sc2ccccc21 | -18.4% |
| CC(C)(C)C(=O)Nc1ccc(C(=O)N/N=C/c2ccccc2OC(=O)c2ccc(Cl)cc2)cc1 | 19.1% |
| Cc1cccc(N)c1-c1c(C)cccc1N | -1.0% |
| CCCOc1cc(C)c(S(=O)(=O)NC2CC(C)(C)NC(C)(C)C2)cc1C | 17.4% |
| O=C1CC[C@@H](CN(Cc2ccccn2)Cc2nc(Cc3ccccc3)no2)N1 | 12.3% |
| O=C(O)C(Cc1c[nH]c2ccccc12)NS(=O)(=O)c1ccc(Cl)cc1 (centres undefined) | -20.4% |

Further results follow.
| smiles | VDR inhibitor |
| --- | --- |
| C#CCOC(=O)c1ccccc1C(=O)N(CC)CC | -15.6% |
| CCc1ccc(-n2nc3cc(C)c(NC(=O)c4ccccc4C)cc3n2)cc1 | -14.5% |
| CCOc1ccc(S(=O)(=O)N2CCC(C(=O)N3CCN(c4ccccc4F)CC3)CC2)cc1C | -9.0% |
| CCN(C(=O)CSc1nc2ccccc2n1Cc1cc(C)ccc1C)c1ccccc1 | 5.3% |
| CCOC(=O)Cn1c(=NC(=O)CC)sc2c(C)cc(C)cc21 | -5.8% |
| COC(=O)c1sc2nc(CN3CCN(c4cccc(C(F)(F)F)c4)CC3)[nH]c(=O)c2c1C | 3.4% |
| COCCN(CC(=O)Nc1cccc(C)c1C)C(=O)c1cc(-c2ccncc2)nc2ccccc12 | 23.3% |
| CC(C)(C)C(=O)Nc1ccc(C(=O)NNC(=O)c2ccccc2)cc1 | -6.6% |
| COc1ccc(OCC(=O)Nc2ccc3c(c2)nc(CCN2CCOCC2)n3C)cc1 | -13.5% |
| O=C(c1nc2ccc(Cl)cn2c1CN1CCC[C@H]1CO)N1CCCCCCC1 | -10.1% |
| Cc1csc(OCc2ccc(C#N)cc2)n1 | -1.2% |
| CC(C)C(=O)N1CCN(c2ccccc2NC(=O)Cc2ccc(Cl)cc2)CC1 | 0.3% |
| COc1ccc(-c2cc(C(=O)N(C)CC(=O)Nc3ccccc3Cl)c3ccccc3n2)cc1OC | -0.6% |
| CCC(C)c1ccc(NC(=S)Nc2ccc(OC)cc2C)cc1 (centres undefined) | -17.4% |
| CCc1ccc(OCC(=O)Nc2ncn[nH]2)c(Br)c1 | -4.8% |

Further entries.
| smiles | VDR inhibitor |
| --- | --- |
| Cc1cccc(OCCCC(=O)O)c1C | -9.2% |
| COc1ccc(C(=O)Nc2ccc3[nH]ccc3c2)cc1 | -4.5% |
| Cc1c([N+](=O)[O-])cc(C(=O)Oc2cccc(C(=S)N3CCOCC3)c2)cc1[N+](=O)[O-] | -16.0% |
| O=C1NC2=C(C(=O)CCC2)C(c2ccccc2[N+](=O)[O-])N1 (centres undefined) | 0.0% |
| O=[N+]([O-])c1ccc2c(c1)CCN2 | 6.0% |
| Cc1nnc(Sc2c(-c3ccccc3)c3ccc(Cl)cc3[nH]c2=O)s1 | -5.2% |
| CCOc1ccc(C(=O)NC(C(=O)NCCc2ccc(OC(F)F)cc2)C(C)C)cc1 (centres undefined) | 2.1% |
| CCCn1c(SCC(=O)Nc2ccc(Cl)cc2)n[nH]c1=O | ? |
| COc1ccc(-c2ncncc2-c2ccc(OC)c(OC)c2)c(O)c1 | -14.2% |
| O=C(NCCCN1CCOCC1)c1cc(-c2ccc(O)cc2)on1 | -15.1% |

Exported as labelled records: entries from further up.
> Cc1cccc(OCCCC(=O)O)c1C
  VDR inhibitor = -9.2%
> COc1ccc(C(=O)Nc2ccc3[nH]ccc3c2)cc1
  VDR inhibitor = -4.5%
> Cc1c([N+](=O)[O-])cc(C(=O)Oc2cccc(C(=S)N3CCOCC3)c2)cc1[N+](=O)[O-]
  VDR inhibitor = -16.0%
> O=C1NC2=C(C(=O)CCC2)C(c2ccccc2[N+](=O)[O-])N1 (centres undefined)
  VDR inhibitor = 0.0%

Assay outcomes deposited in PubChem by National Center for Advancing Translational Sciences (NCATS).
